Sa growth inh: inhibitors of Staphylococcus aureus growth at 42 °C | S. aureus RN4220 growth, OD600, 20 h; active compounds read low | relative growth, % (concentration not given with the values) | 0.53% of 170,000 active | AID 720641;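 active = growth at 42 °C up to 50% and 20 or more points under that at 30 °C, or under 10% at both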;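 also: 300 nL library stock went into each well; scaled to the means of positive and negative controls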
GIV Gai3 FP: blocks GIV peptide binding to rat Galpha-i3; P08753; Galpha-i3/FITC-GIV peptide fluorescence polarization, 90 min; active compounds read low; scaled: aluminum fluoride 0%, vehicle 100%; percent of control (FP), % (test concentration not listed); 0.42% of 210,000 active;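 active = replicate mean at 85% of control or lower, very high polarization wells dropped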;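 also: lower values mean more displacement of the GIV peptide from Galpha-i3; wells of about 15 µL received 100 nL stock; the first replicate is given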
Target sequence (P08753 whole entry, looked up): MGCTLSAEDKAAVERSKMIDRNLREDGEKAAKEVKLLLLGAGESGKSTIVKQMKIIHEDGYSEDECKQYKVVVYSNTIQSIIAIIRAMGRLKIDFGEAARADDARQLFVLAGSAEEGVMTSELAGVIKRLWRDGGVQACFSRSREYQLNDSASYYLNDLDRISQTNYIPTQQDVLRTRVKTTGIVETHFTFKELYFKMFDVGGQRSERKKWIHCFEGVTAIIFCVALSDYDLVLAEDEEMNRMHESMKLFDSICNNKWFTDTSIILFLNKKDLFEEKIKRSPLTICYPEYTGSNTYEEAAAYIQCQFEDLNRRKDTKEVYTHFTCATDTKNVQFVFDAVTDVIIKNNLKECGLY
HCMV UL50-53 inh: cytomegalovirus nuclear egress complex inhibition; HTRF UL50-UL53 interaction, normalized percent inhibition; inhibition, % (no concentration beside the values); AID 1918969; 0.15% of 190,000 active;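 active = both replicates at 50% or more, plus weaker picks with an unusually low signal ratio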;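 also: stock transfer was 100 nL into about 20 µL; 0% = negative control wells and 100% = wells with untagged competitor protein; inactives centre near -12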
Sa growth inh second temp: further read-out of Sa growth inh, marked with its call; relative growth, %; measured here: growth at 30 °C;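 optical density after 20 h as mean of two plates; 100% = untreated growth and lower means inhibition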
An asterisk follows results filed as active; · = not tested or not shown; & = joins results of further samples.

SMILES | Sa growth inh | Sa growth inh second temp | GIV Gai3 FP | HCMV UL50-53 inh
O=C(NCC(c1cccs1)S(=O)(=O)c1cccs1)c1ccc(F)c(F)c1 (stereo not given) | 115 | 80 | 100 | ·
CC1=C(C(=O)Nc2cccc(Cl)c2C)C(c2ccc(F)cc2)NC(=S)N1 (stereo not given) | 94 | 83 | 108 | ·
CCCc1cc2c(c(N)n1)c(=O)oc1ccccc12 | 90 | 80 | 103 | -32
COc1cccc(C2(O)CCN(C(=O)Cc3ccc(OC)c(OC)c3)CC2)c1 | 97 | 88 | 104 | 8
CCc1ccccc1NC(=O)CSc1nccn1C | 89 | 94 | 109 | -7
CCCN1CCN(c2nnc(-n3cccc3C(=O)Nc3ccccc3C(F)(F)F)s2)CC1 | 120 | 93 | 105 | ·
CN1CCCN(C(=O)c2cc(=O)c3ccccc3o2)CC1 | 98 | 92 | · | 5
Cc1oc(-c2ccc(C(=O)NC3CCCC3)cc2)nc1CS(=O)c1ccccc1 (stereo not given) | 92 | 91 | 100 | -20
O=C(NC1CCCc2ccccc21)c1ccc(-n2nc(OCc3cccc(F)c3)ccc2=O)cc1 (stereo not given) | · | · | 98 | 5
CCOC(=O)c1cc(NC(=O)N(C(C)C)C(C)C)c(C)nc1C | 96 | 98 | 108 | 1
Cn1c(=O)c(=O)n(C)c2cc(S(=O)(=O)CCC(=O)NCc3ccccc3)ccc21 | 99 | 88 | 100 | ·
CCOc1ccc(NC(=O)CSc2nc3ccsc3c(=O)n2-c2ccccc2)cc1 | 92 | 89 | 93 | 3
O=C(CC12CC3CC(CC(C3)C1)C2)Nc1noc2ccccc12 | 88 | 86 | 100 | -4
Cc1nn(-c2ccc(F)cc2)c(-n2cccc2)c1C(=O)N1CCN(c2ccccc2)CC1 | 117 | 90 | 100 | ·
Cc1cccc2c1-c1sc(C(=O)Nc3ccc(F)cc3F)cc1CO2 | 93 | 87 | 100 | -33

Sorted by molar mass (largest number first): five of the compounds above.
SMILES | Sa growth inh | Sa growth inh second temp | GIV Gai3 FP | HCMV UL50-53 inh
CCCN1CCN(c2nnc(-n3cccc3C(=O)Nc3ccccc3C(F)(F)F)s2)CC1 | 120 | 93 | 105 | ·
CCOc1ccc(NC(=O)CSc2nc3ccsc3c(=O)n2-c2ccccc2)cc1 | 92 | 89 | 93 | 3
Cn1c(=O)c(=O)n(C)c2cc(S(=O)(=O)CCC(=O)NCc3ccccc3)ccc21 | 99 | 88 | 100 | ·
O=C(NCC(c1cccs1)S(=O)(=O)c1cccs1)c1ccc(F)c(F)c1 (stereo not given) | 115 | 80 | 100 | ·
CC1=C(C(=O)Nc2cccc(Cl)c2C)C(c2ccc(F)cc2)NC(=S)N1 (stereo not given) | 94 | 83 | 108 | ·

New compounds follow.
SMILES | Sa growth inh | Sa growth inh second temp | GIV Gai3 FP | HCMV UL50-53 inh
CCOC(=O)c1cc(S(=O)(=O)N2CCCC2C(=O)NC2CC2)cn1C (stereo not given) | · | · | 102 | -8
O=C1O[C@@H]2C[C@H]3C[C@@H]2[C@@H]1[C@H]3C(=O)N1CCCCC1 | 82 | 84 | 101 | ·
Nc1ccc(S(=O)(=O)NC2CCCCC2)cc1 | 93 | 87 | · | -11
CCCCn1c2ccccc2c2nnc(SCCN3CCOCC3)nc21 | 102 | 85 | 104 | -7
CC1(C)OC2OC(C(O)CO)C(O)C2O1 (stereo not given) | 99 | 93 | 100 | -5
Nc1c(C(=O)Nc2ccccc2Cl)nnn1Cc1cccc(Cl)c1 | 105 | 94 | 104 | -24
COc1nc(N=C(N)N)nc2ccc(C)cc12 | 60 | 37 | 105 | -16
CC(=O)Nc1ccc(C(=O)OCC(=O)c2ccc(Cl)cc2Cl)cc1 | 92 | 92 | · | -8
Cc1ccc(-n2nc(N3CCN(C(=O)CN4C(=O)C(C)Oc5ccccc54)CC3)ccc2=O)cc1 (stereo not given) | · | · | 100 | -56
COC(=O)c1ccc2c(c1)N(Cc1nc(-c3ccccc3C)oc1C)C(=O)C1CCCN21 (stereo not given) | 103 | 82 | 106 | 5
Cn1c(=O)c(C#N)c(O)c2ccccc21 | 91 | 90 | 103 | -14
Cc1ccc(Nc2ncc(C(=O)NCCC3=CCCCC3)c3ccccc23)cc1Cl | 113 | 89 | 102 | ·
COc1ccc2[nH]c(C(=O)Nc3ccc4c(c3)OCO4)cc2c1 | 114 | 88 | 106 | 0
CCC(=O)N1CCc2cc(Br)cc(S(=O)(=O)N3CCCC(C(=O)Nc4ccc(OC)cc4OC)C3)c21 (stereo not given) | 119 | 102 | 104 | 0
COc1cc(OC)cc(C2C(C#N)=C(N)OC(N)=C2C#N)c1 | 60 | 59 | · | -1
CCN(CC)CCNc1cc(-c2ccccc2)ncn1 | · | · | 101 | -15
C[C@]12C[C@H](O)[C@@H]3c4ccc(O)cc4CCC3[C@@H]1CCC2=O (stereo not given in full) | 100 | 92 | 108 | -7
CCOC(=O)C1CCCN(S(=O)(=O)c2ccccc2)C1 (stereo not given) | 93 | 88 | · | -19
CCOc1ccc(C(=O)Nc2ccc(-c3cc4ccccc4oc3=O)cc2)cc1Br | 100 | 91 | 105 | -43
CN(CC(=O)NCc1cccc(F)c1)C(=O)c1ccco1 | 104 | 84 | 106 | -25
CN(C)CCN(Cc1ccccc1)c1ccccn1 | 96&96 | 93&89 | · | -36&-18&-12
Cc1cc(=O)[nH]c(N/N=C/C=C/c2ccccc2)n1 | 90 | 85 | 107 | -76
COC(=O)c1c(NC(=O)/C=C/c2cccs2)sc2c1CCCC2 | 91 | 88 | · | -34
CCOc1ccc2nc(NC(=O)c3nc(SC)ncc3Cl)sc2c1 | 110 | 89 | 99 | -18
COc1cc(OC)c(C(=O)OCC(=O)c2ccc3c(c2)NC(=O)CO3)cc1OC | 87 | 89 | · | -3
O=C(COc1nc2ccccc2nc1N1CCOCC1)N1CCc2ccccc21 | 87 | 98 | · | 12
COc1ccc(-c2cc(C(=O)Nc3cc(C)ccc3O)no2)cc1OC | 103 | 93 | 106 | -16
COC(=O)Cn1cnc2ccccc2c1=O | 105 | 93 | · | -27
Cc1ccc(N2CC(C(=O)NCc3ccccn3)CC2=O)cc1 (stereo not given) | 109 | 85 | · | -2
O=c1[nH]c2cccc(Cl)c2n(CCNc2ncc(C(F)(F)F)cc2Cl)c1=O | · | · | 96 | -11
CCN1CCN(c2ccc(NC(=O)CCc3c(C)nc4cc(-c5ccc(OC)cc5OC)nn4c3C)cc2)CC1 | 86 | 87 | 99 | -8
COc1ccc(-c2cc3n(n2)CCC(=O)N3Cc2ccc(C(=O)N3CCc4ccccc43)cc2)cc1 | · | · | 111 | -5
Cc1cc(C(=O)O)c2c(=O)n(C)c(=O)n(C)c2n1 | 98 | 88 | 110 | -23
COc1ccc(NC2CS(=O)(=O)CC2NCc2ccco2)cc1 (stereo not given) | 96 | 89 | · | -6
N#Cc1c(Cl)cccc1Oc1ccc(-c2nnco2)cc1 | 110 | 104 | 96 | 2
CCCCNc1ncccc1-c1nc(-c2ccccc2)no1 | · | · | 100 | -11
Cn1c(SCc2ccccc2Cl)nnc1-c1sc2ncccc2c1N | · | · | 98 | -8
COc1ccc(NC(=O)c2c(NCc3cccs3)sc3c2CCC(C)C3)c(OC)c1 (stereo not given) | 82 | 96 | 103 | ·
CCN1C(=O)C(C(O)c2cc(OC)ccc2OC)SC1=Nc1ccc(C(=O)OC)cc1 (stereo not given) | 87 | 82 | 99 | ·
Cc1ccc(NC(=O)Cn2c(-c3ccc4c(c3)OCO4)cn(-c3ccccc3)c2=O)cc1 | 110 | 86 | 108 | -13
CN1CCN(c2ccc(Cl)cc2NC(=O)c2cccc(S(=O)(=O)N3CCc4ccccc43)c2)CC1 | 102 | 100 | · | -32
O=C(CCC1COc2ccccc2O1)N1CCCC1 (stereo not given) | 100 | 81 | 110 | 12
Cc1cc(=O)[nH]c(SCC(=O)N2CCN(S(=O)(=O)c3ccccc3)C2)n1 | 94 | 87 | 98 | -26
COCc1c(Br)c(C)nc2oc(C(=O)c3ccccc3)c(N)c12 | 79 | 86 | 101 | ·
Cn1cccc1C=Nc1ccc(S(N)(=O)=O)cc1 | 86 | 71 | · | -26
O=C(CCCN1C(=O)c2ccccc2Sc2ncccc21)NCCc1ccc(Cl)cc1 | · | · | 106 | -45
O=C(CN1CCN(S(=O)(=O)/C=C/c2ccccc2)CC1)NCC(F)(F)F | 87 | 89 | · | -18
Clc1ccc(-c2cc(-c3ccccc3)n[nH]2)cc1 | 84 | 69 | · | -34
CCCc1cc(=O)n2c(nc3ccccc32)[nH]1 | 93 | 88 | 97 | -3
CCCCNC(=O)c1ccc2c(c1)c(C)c(C)n2Cc1cccc(C)c1 | · | · | 109 | -21
Oc1ccc(-c2nc3ccc(Cl)cn3c2Nc2ccc(Cl)cc2)cc1 | 98 | 91 | 105 | 7
N#CCOC(=O)[C@H](Cc1ccccc1)N1C(=O)c2ccccc2C1=O | 94 | 100 | · | -22
CCCc1c(C(=O)OCC)nnc2c(-c3ccc(Cl)cc3)c(C)nn12 | · | · | 107 | -18
O=c1/c(=C/c2cccs2)sc2nnc(-c3ccc(Cl)cc3)n12 | 117 | 98 | 102 | 50
O=C(O)CN=CC1=C(O)CC(c2ccccc2)CC1=O (stereo not given) | 98 | 96 | 102 | -5
Cc1ccc2nc(-c3ccc(O)c(O)c3)cn2c1 | 74 | 89 | · | -6
CC1=C(C(N)=O)C(c2cccc(Br)c2)n2ncnc2N1 (stereo not given) | · | · | 104 | -24
CC(C)Nc1nc(Cl)nc(Nc2ccc(-c3nc4ccccc4o3)cc2)n1 | 96 | 76 | 101 | -14
CCOC(=O)C1=C(N)Oc2c(c(=O)[nH]c3ccccc23)C1c1ccc(OC)c(OC)c1 (stereo not given) | 82 | 80 | 101 | ·
NC(=O)C1CCN(C(=O)CN2c3ccc(Br)cc3-c3ccccc3S2(=O)=O)CC1 | · | · | 100 | -14

Retrieved by compound from the entries so far, three records:
SMILES | Sa growth inh | Sa growth inh second temp | GIV Gai3 FP | HCMV UL50-53 inh
COc1ccc(NC2CS(=O)(=O)CC2NCc2ccco2)cc1 (stereo not given) | 96 | 89 | · | -6
CCCCNc1ncccc1-c1nc(-c2ccccc2)no1 | · | · | 100 | -11
Cc1cc(=O)[nH]c(SCC(=O)N2CCN(S(=O)(=O)c3ccccc3)C2)n1 | 94 | 87 | 98 | -26

Carrying on.
SMILES | Sa growth inh | Sa growth inh second temp | GIV Gai3 FP | HCMV UL50-53 inh
CCOc1ccc(CCNC(=O)CCCc2nnc3n(C)c(=O)c4sccc4n23)cc1OCC | 86 | 95 | 99 | 12
CC(=O)N/C(=C/c1ccccc1)C(=O)Nc1ccc(C)c(C)c1 | 104 | 83 | · | -17
Cc1cc(C(=O)NCc2ccc(S(N)(=O)=O)cc2)cs1 | 101 | 109 | 110 | 6
O=C(O)Cc1cn(-c2ccccc2)nc1-c1ccccc1 | 135 | 93 | · | -26
COc1ccc(Cn2nnc3c(=O)[nH]c(C4CCCN(S(=O)(=O)c5ccccc5)C4)nc32)cc1 (stereo not given) | 108 | 87 | 103 | ·
O=C(Nc1sc2c(c1C(=O)NCC1CCCO1)CCCC2)c1cc(=O)c2ccccc2o1 (stereo not given) | 93 | 90 | 101&105 | -16&-28
CCOc1ccc(-c2cc(C(=O)NC(C)c3ccccc3)c3ccccc3n2)cc1 (stereo not given) | 113 | 66 | 104 | ·
CCc1ccccc1CSc1n[nH]c(=O)n1Cc1ccco1 | 89 | 82 | 99 | -23
COc1ccccc1N=c1scc(-c2ccco2)n1/N=C/c1ccccn1 | 128 | 107 | · | -32
CCCOC(=O)C1=C(C)NC2=C(C(=O)CC(c3ccc(OC)c(OC)c3)C2)C1c1ccccc1OC (stereo not given) | · | · | 106 | -23
CCC1=C(C(=O)OC)C(c2cccc(O)c2)n2ncnc2N1 (stereo not given) | 116 | 84 | 103 | -28
COc1ccc(-c2nsc(NC(=O)c3oc4ccccc4c3C)n2)cc1 | 92 | 88 | 100 | 3
Cc1ccc(-n2c(C)cc(C(=O)C(=O)Nc3ccccc3)c2C)c(C)c1 | 104 | 85 | 101 | -10
COc1ccc(CNC(C)=O)cc1 | 108 | 91 | · | -3
CCN(c1ccccc1)S(=O)(=O)c1ccc(CC(C)C)cc1 | 88 | 86 | 115 | ·
Cc1cc(=O)n2c(n1)NC(Nc1cccc(C)c1C)=NC2c1ccc(F)cc1 (stereo not given) | · | · | 105 | -27
Cc1ccccc1NC(=O)c1ccc(F)c(S(=O)(=O)N(C)Cc2ccccc2)c1 | 116 | 86 | 104 | ·
N#CC(Nc1ccc(Cl)cc1Cl)c1ccccc1 (stereo not given) | 49 | 52 | 95 | -10
FC(F)(F)c1ccc2sc(=S)[nH]c2c1 | -0.8* | -0.8* | · | -8
Cc1ccc(CNC(=O)c2nnc(Cc3cccc(F)c3)o2)cc1 | 113 | 89 | 103 | -11
CCCC(=O)Nc1nc(CC(=O)OCC)cs1 | 83 | 77 | 103 | -19
CC(C)c1noc(-c2ccccc2OCC(=O)NC(C)c2ccccc2)n1 (stereo not given) | · | · | 99 | -22

Source: PubChem BioAssay (ICCB-Longwood Screening Facility, Harvard Medical School)
